Screening results as filed in PubChem BioAssay.
gsp antagonist – qHTS for Antagonists of gsp, the Etiologic Mutation Responsible for Fibrous Dysplasia/McCune-Albright Syndrome: qHTS; gsp-mutant cells, cAMP HTRF, 30 min; control for the full effect not named in the record; Potency, µM (top dose mostly 76.9 µM), for inactives: at the top dose activity change, negative = inhibition, actives largely listed as inhibitors; 0.4% of 340,000 active; active = falling curve of any shape with a large fitted effect; inconclusive = falling curve, mostly with a smaller effect; inactive = flat or rising curve; cell line not stated here;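 also: intracellular cAMP measured with PDE inhibitor Ro 20-1724 present during compound exposure; potency is read from the fitted curve at half-maximal effect; % is scaled to controls: 0 for no effect and ±100 for the full control effect; nearly all actives have a fitted effect of over 65% in size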
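HTRF cAMP read-out (cAMP-d2 plus anti-cAMP antibody-K in lysis buffer, 30 min RT). Before lysis, cells are exposed to compounds with […] for 30 min at 37C in DPBS containing Ca/Mg, BSA and Tween 20.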
ClpP mod – qHTS Assay for Activators of ClpP. ATP-dependent Clp protease proteolytic subunit (Bacillus subtilis (strain 168)), P80244. purified B. subtilis ClpP, FRET peptide cleavage, 20 min. Potency, µM (titrated, usually from 57.5 µM), for the others: top-dose activity change, negative = active. 1.9% of 340,000 active. AID 651965, 2013; active = well fitted falling curve with a large enough effect; inconclusive = small, poorly fitted or top-dose-only effect; inactive = no such curve, though single readings can be large or run the other way; also: potency is read from the fitted curve at half-maximal effect; the source files actives as falling curves though it sought activators and does not explain the sign; nearly all actives have a fitted effect of over 65% in size; many hits overshoot -100%
Target sequence (P80244 whole entry, looked up): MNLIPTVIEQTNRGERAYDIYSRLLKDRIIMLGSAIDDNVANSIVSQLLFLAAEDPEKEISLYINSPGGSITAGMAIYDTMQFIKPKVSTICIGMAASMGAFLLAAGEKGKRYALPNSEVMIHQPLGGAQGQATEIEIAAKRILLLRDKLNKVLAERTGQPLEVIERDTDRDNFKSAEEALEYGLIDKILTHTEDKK
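ClpP 10 microg/mL final, pH 8 Tris/KCl buffer with BSA, glycerol, Tween-20; compound pinned in; FRET-FV substrate; RT 20 min; Ex320/Em430; ΔFRET vs ADEP 5.8 microM, DMSO, no enzyme.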
TRPML1 blocker – qHTS for Inhibitors of the Human Mucolipin Transient Receptor Potential 1 (TRPML1). activity change, negative = inhibition, % (concentration not given with the values). 0.02% of 390,000 active. TRPML1-inducible cells, Ca2+ dye fluorescence, FDSS; hits give low values; inhibition of EC80 agonist-evoked calcium signal; in the data active means activity change below about -50%; inconclusive means about -30% to -50%; inactive means above about -30%;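 also: stimulus is agonist 54-4 at its EC80 concentration; % is scaled to controls: 0 for no effect and ±100 for the full control effect; compound concentration not given in the record; the text of the record puts the active cut at -80%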
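TRPML1-DL cells, Tet-induced overnight (~16 h, 37 °C) at 1,500 cells/well, were loaded with Ca8 no-wash dye plus quencher for 45-90 min at room temperature. Compounds were pinned during FDSS kinetic reading; agonist 54-4 at EC80 (4 uM final) then added.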
TRPV1 potentiator – HTS Assay for Compounds that Act as Potentiators of the Vanilloid Receptor 1 | Transient receptor potential cation channel subfamily V member 1 (Homo sapiens), Q8NER1 | TRPV1-expressing cells, Fluo-8 calcium influx, capsaicin EC20 potentiation; host cell line not named in the record; control for the full effect not named in the record | potentiation, % at 8.33 µM | 0.02% of 320,000 active | AID 540277, 2011; active means potentiation above 80%; inconclusive means 30% to 80%; inactive means below 30%; also: 0% is about no effect
Target sequence (Q8NER1 whole entry, looked up): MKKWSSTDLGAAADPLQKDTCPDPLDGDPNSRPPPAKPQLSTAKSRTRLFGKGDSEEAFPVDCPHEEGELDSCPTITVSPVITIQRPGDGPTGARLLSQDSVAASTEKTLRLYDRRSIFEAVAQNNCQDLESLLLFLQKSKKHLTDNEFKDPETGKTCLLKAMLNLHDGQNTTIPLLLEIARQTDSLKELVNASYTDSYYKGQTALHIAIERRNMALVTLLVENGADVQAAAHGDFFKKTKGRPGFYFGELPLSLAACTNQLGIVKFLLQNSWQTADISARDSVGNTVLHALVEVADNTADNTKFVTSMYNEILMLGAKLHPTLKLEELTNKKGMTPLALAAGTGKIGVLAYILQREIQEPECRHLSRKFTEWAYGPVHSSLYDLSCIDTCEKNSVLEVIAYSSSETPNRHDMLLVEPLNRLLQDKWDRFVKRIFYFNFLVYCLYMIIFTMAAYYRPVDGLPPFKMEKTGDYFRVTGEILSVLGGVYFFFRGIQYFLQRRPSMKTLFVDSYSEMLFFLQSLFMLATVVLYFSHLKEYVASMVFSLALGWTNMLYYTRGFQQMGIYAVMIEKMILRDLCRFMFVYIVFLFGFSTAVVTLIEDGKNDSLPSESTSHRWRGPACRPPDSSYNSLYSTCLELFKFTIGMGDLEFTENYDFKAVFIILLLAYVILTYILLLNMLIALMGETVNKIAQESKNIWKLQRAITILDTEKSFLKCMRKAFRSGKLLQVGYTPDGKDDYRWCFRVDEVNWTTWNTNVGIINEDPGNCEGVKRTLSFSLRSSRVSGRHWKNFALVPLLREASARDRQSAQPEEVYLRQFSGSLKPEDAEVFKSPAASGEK
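Cells expressing TRPV1 were dye-loaded with Fluo-8 and read kinetically: 10 s baseline, 3 min after compound (agonist portion), then 2 min after EC20 capsaicin (allosteric enhancer portion). Calcium-bound dye fluorescence at 480/520 nm.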
gsp agonist – qHTS for Agonist of gsp, the Etiologic Mutation Responsible for Fibrous Dysplasia/McCune-Albright Syndrome: qHTS; gsp mutant cells, cAMP HTRF, 30 min; control for the full effect not named in the record; Potency, µM (series often up to 76.9 µM), for inactives: at the top dose activation (cAMP increase), usual class: activators; 0.13% of 340,000 active; active = well fitted activation curve with a large enough effect; inconclusive = small, poorly fitted or top-dose-only effect, or another doubt; inactive = no such curve, though single readings can be large or run the other way; cell line not stated here;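 also: phosphodiesterase inhibitor Ro 20-1724 added with compounds to block cAMP breakdown; potency is read from the fitted curve at half-maximal effect; nearly all actives have a fitted effect of over 60% in size; about a fifth of the inactives were tested at one dose only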
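Cells stably selected in G418 were plated at 2000/well, grown 16-24 hr, then given compounds in DMSO with the PDE inhibitor […] (300 uM solution added) for 30 min at 37C; cAMP was read by HTRF.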
Menin-MLL FL inh – qHTS Assay for Inhibitors Targeting the Menin-MLL Interaction in MLL Related Leukemias: Competition With Fluorescein Labeled MLL-derived Peptide; Fluorescence polarization, fluorescein-MLL peptide displacement from menin; FP activity change, % at 61.4 µM; 290,000 tested, under 10 active; inconclusive = falling polarisation curve, or a change in total fluorescence; inactive = total fluorescence flat and polarisation flat or rising; no compound was filed as active; the % refers to the polarisation; negative = inhibition;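 also: % of control where 0% means no effect; inhibitors lower the polarisation; unlabelled MLL peptide was the positive control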
Sfp inh – qHTS Assay for Inhibitors of Bacillus subtilis Sfp phosphopantetheinyl transferase (PPTase) | 4'-phosphopantetheinyl transferase ffp (Bacillus subtilis), Q9F4F7 | Biochemical Sfp PPTase activity, qHTS | Potency, µM, inactives show max response, negative = inhibition, usual class: inhibitors | 3.5% of 310,000 active | AID 1490, 2009; active = well fitted inhibition curve with a large enough effect; inconclusive = small, poorly fitted or top-dose-only effect, or another doubt; inactive = no such curve, though single readings can be large or run the other way;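 also: the enzyme is Sfp with the accession as filed and its product quenches rhodamine fluorescence; potency is read from the fitted curve at half-maximal effect; 0% = enzyme reaction without inhibitor and -100% = no enzyme wells; top concentration of the series not given in the record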
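With Hepes-Na pH 7.6 buffer containing 10 mM MgCl2, Sfp (15 nM) modified BHQ-2-YbbR (12.5 uM) using rhodamine-CoA (5 uM). Two reads 30 minutes apart at 525/598 nm yielded each well's rate.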
* marks the source's active call; other numbers are inactive results; ? = inconclusive; . = not tested or not shown; [ ] = remark or other dose.

SMILES	gsp antagonist	ClpP mod	TRPML1 blocker	TRPV1 potentiator	gsp agonist	Menin-MLL FL inh	Sfp inh
CCOc1ccc(S(=O)(=O)N2CCN(Cc3ccc4c(c3)OCO4)CC2)cc1C	0%	.	-7	0	-26%	-6.3	12%
CCN=C1SC(CC(=O)NC(N)=O)C(=O)N1CC (stereo not given)	16%	0.1%	-4	9	29%	7.4	8%
NC(=O)[C@@H]1CC2(CC(c3cccc(NC(=O)CC(c4ccccc4)c4ccccc4)c3)=NO2)CN1C(=O)[C@@H]1CCC(=O)N1 (stereo not given in full)	5%	-3.6%	-12	-4	24%	0.2	-13%
CCN(CC)C(=S)Nc1ccc(OC(F)F)cc1	11%	-0.8%	8	21	4%[15.4 µM]	-4.9	25%
Cc1ccc(S(=O)(=O)NCC(=O)N(CC(=O)NCc2ccco2)Cc2ccccc2)cc1	4%	.	-7	1	7%[15.4 µM]	.	14%
CN(C)S(=O)(=O)c1ccc(Cl)c(NC(=O)COC(=O)CCC2CCCCC2)c1	-1%	1.1%	18	.	7%	.	.
N#Cc1c(N2CCCCC2)nc(N2CCCCC2)c2c1CCN(Cc1ccccc1)C2	-3%	11µM*	-3	-18	?	-0.6	3%
Cc1cc(C)n(-c2ccc(Cl)c(C(=O)O)n2)n1	0%	?	-15	5	11%	-0.4	-15%
O=C(CCCC(=O)N1CCN(c2ccccc2F)CC1)c1ccccc1	-3%	0.1%	-14	-19	-2%	-0.8	-4%
CCCN(Cc1cc2cc(C)ccc2[nH]c1=O)C(=O)c1ccccn1	-19%	1.0%	.	-6	13%	1.4	1%
CCN1C(=O)C(CC(=O)Nc2ccc(OC)cc2)N(CCCN2CCN(c3ccc(OC)cc3)CC2)C1=S (stereo not given)	-8%	.	-12	7	5%	-3.6	13%
CC(C)N(C(=O)N1CCC(c2nc(-c3ccncc3)no2)CC1)C(C)C	?	0.3%	-3	-9	?	6.3	9%
O=c1c2ccccc2nnn1CSc1nnc(-c2cccc(S(=O)(=O)N3CCCCC3)c2)o1	-1%	379%	13	10	26%	7.3	0%
CCCn1c(NC(=S)Nc2ccccc2)nc2ccccc21	-6%	3.0%	28	-22	2%	2.7	-10%
CCOC(=O)c1[nH]cnc1C(=O)Nc1ccccc1OC	6%	0.7%	11	-4	19%[15.4 µM]	-0.2	2%

The results go on:
SMILES	gsp antagonist	ClpP mod	TRPML1 blocker	TRPV1 potentiator	gsp agonist	Menin-MLL FL inh	Sfp inh
CC1CCN(CC(=O)NC2CCCCC2)CC1	7%	-27%	24	-10	-8%[15.4 µM]	1.3	6%
Cn1nc(OCCOc2ccccc2)ccc1=O	0%	?	3	2	10%	-2.4	20%
O=C(N[C@H](Cc1ccc(Cl)cc1)C(=O)O)OCC1c2ccccc2-c2ccccc21	-3%	2.1%	-29	3	-32%[inhibitor]	2.4	23%
O=C(/C=C/c1ccncc1)c1cc(Cl)ccc1O	-15%	.	-12	8	?	5.4	-26%
CN(CC(=O)Nc1ccc(Cl)cc1)C(=O)CNC(=O)c1ccc2ccccc2c1	-1%	-4.7%	1	3	-21%	-0.4	1%
Cc1ccnc(NC(=O)CCC(=O)N(CC(=O)NCc2ccc(F)cc2)c2cccc(F)c2)c1	4%	.	3	12	-4%	-3.7	14%
CCOc1cc(OCC)cc(C(=O)NC(=S)Nc2cccc(C(F)(F)F)c2)c1	-12%	-1.2%	0	6	1%	2.4	89µM*
CCc1ccc(NC(=O)CC2NCCNC2=O)cc1 (stereo not given)	12%	1.9%	-13	1	1%	-1.2	22%
CC(NC(=O)CCc1c[nH]c2ccccc12)c1ccccc1 (stereo not given)	0%	-3.0%	-9	2	-8%	5.5	14%
COc1ccc(CNC(=O)C2CCCN(c3nccc(C)n3)C2)cc1 (stereo not given)	3%	?	14	-22	5%	1.0	-12%
NC1=NN=C(c2ccc3c(c2)OCCO3)CS1	-7%	.	20	-7	24%[15.4 µM]	-3.7	79µM*
CCn1c(C)nc2cc(C(=O)NNC(=O)CN(C)S(=O)(=O)c3ccc(NC(C)=O)cc3)ccc21	11%	-23%	2	.	13%	.	.
CC1CC(C)(C)NC(=S)N1CC(=O)NCc1ccccc1Cl (stereo not given)	7%	0.9%	-2	10	-72%[inhibitor]	-0.9	7%
CC(=O)Nc1ccc(S(=O)(=O)Nc2nc3ccccc3nc2Nc2cccc(S(N)(=O)=O)c2)cc1	-3%	.	14	1	-20%[15.4 µM]	3.1	16%
COc1ccc(S(=O)(=O)N(C)C[C@H]2Oc3ccc(NC(=O)c4ccncc4)cc3C(=O)N([C@H](C)CO)C[C@@H]2C)cc1	5%	2.0%	-12	.	.	.	.

Remaining list, next part.
SMILES	gsp antagonist	ClpP mod	TRPML1 blocker	TRPV1 potentiator	gsp agonist	Menin-MLL FL inh	Sfp inh
O=C(CN1CCN(c2ccccc2)CC1)Nc1scc2c1c(=O)oc1ccccc12	-8%	0.4%	-17	-7	-1%	-4.1	8%
COc1ccc(CN(C)CC(O)COC(c2ccc(OC)cc2)c2ccc(OC)cc2)cc1 (stereo not given)	3%	.	8	-1	?	-4.4	-15%
CC(=O)c1cccc(OCCN2C(=O)NC(C)(C)C2=O)c1	-1%	-0.7%	16	-2	-31%	3.3	-5%
CC1CCCC(NC(=S)NC(=O)c2ccccc2Br)C1C (stereo not given)	-3%	1.1%	41	-7	-2%	4.7	6%
O=C(CSc1ccc(S(=O)(=O)N2CCOCC2)cn1)Nc1ccc(F)c(F)c1	4%	-0.2%	-7	-12	29%	.	.
O=C(COC(=O)c1ccc(Cl)nc1)Nc1ccc(Cl)cc1	6%	.	-3	14	-14%[15.4 µM]	.	.
COc1ccccc1C1N(c2ccc(Cl)cc2)C(=O)C2CCCN21 (stereo not given)	22%	-1.2%	-9	-9	-1%	14	13%
O=C(c1cc(Br)ccc1Cl)N1CCN(c2ccccn2)CC1	-9%	-8.0%	5	-7	-7%	-0.5	-3%
Cc1nc(NC(=O)c2cccc(-c3cc4ccccc4oc3=O)c2)ccc1Br	-14%	-5.2%	5	-1	33%[15.4 µM]	-0.4	-13%
COc1ccc(N2CCN(S(C)(=O)=O)CC2)cc1	5%	-9.5%	21	15	0%	2.9	-2%
C/C(=N\NC(=O)c1c[nH]c2ccccc12)c1ccc(C)s1	13%	0.6%	-9	0	?	1.8	-7%
COc1cc(CN2CCCCCC2)cc(OC)c1O	-5%	-2.1%	3	-14	-14%	3.0	-21%
CCOc1ccc(CN(C)CC(=O)NCc2ccccc2)cc1	6%	0.2%	10	-2	7%	1.5	6%
COc1ccc(-n2c(SCC(=O)N(C)c3ccccc3)nc3c([nH]c4ccccc43)c2=O)cc1OC	?	-1.6%	-4	14	?	-0.4	4%
COC(=O)CCC/C=C1\SC[C@@H](NC(=O)c2ccccc2)C1NC(C)=O (stereo not given in full)	-7%	.	-2	7	12%	.	19%

More records.
SMILES	gsp antagonist	ClpP mod	TRPML1 blocker	TRPV1 potentiator	gsp agonist	Menin-MLL FL inh	Sfp inh
CC1CCCN(S(=O)(=O)c2ccc(NC(=O)Cn3nnc(-c4ccccc4F)n3)cc2)C1 (stereo not given)	9%	0.4%	4	-1	9%	1.5	19%
N/C(=N\OC(=O)/C=C/c1ccccc1)c1ccccn1	1%	.	4	-10	-45%[inhibitor]	1.2	-3%
CCn1c(CCn2ccnc2C)n[nH]c1=S	3%	-0.2%	20	5	?	-0.4	3%
COc1ccc(N2CCN(c3ccc(NC(=O)/C=C\C(=O)O)cc3)CC2)cc1	-6%	-1.4%	.	-4	-3%	1.6	4%
CCN(CC(=O)NCc1ccc(Cl)cc1)C(=O)COc1cccc(Cl)c1	-16%	.	-10	1	-17%[15.4 µM]	.	.
O=C(O)CN1CCCCCC1=O	-17%	0.3%	-18	-1	?	1.6	20%
Cc1oc(-c2cccs2)nc1CS(=O)CC(=O)NC1CCCCCC1 (stereo not given)	-4%	-0.7%	-7	.	-17%	9.3	-19%
CCN1CCN(c2ncnc3scc(-c4ccc(OC)cc4)c23)CC1	-20%	-1.1%	26	10	18%	-9.9	5%
C=C(C)CSc1nc2nc(C)cc(C)n2n1	2%	-11%	-8	-3	-39%[inhibitor]	2.2	10%
O=[N+]([O-])c1cc2c(cc1Br)-c1ccccc1C2	.	0.3%	-9	.	23%	.	.
O=[N+]([O-])c1ccc(-c2nc(Nc3ccc(O)cc3)c3ccccc3n2)cc1	-42%	-0.1%	-2	-9	?	-2.5	9%
Cc1cc(C)nc(N(C#N)Cc2cccc(Cl)c2)n1	7%	-2.2%	-4	-10	-30%[inhibitor]	5.4	4%
COc1cc(/C=C2/NC(=O)NC2=O)cc(Br)c1OCc1ccccc1	3%	.	9	0	-17%	-1.8	23%
CC(=O)NCC(=O)OCN1C(=O)c2ccccc2C1=O	7%	-2.1%	4	-3	8%	3.4	13%
Cc1cccc(NC(=O)Cn2c(=O)n(Cc3ccco3)c(=N)c3c4c(sc32)COC(C)(C)C4)c1	-6%	-15%	-4	?	-33%	13	3%
